# OX1R antagonist: antagonists of human orexin 1 receptor; O43613; CHO/OX1R cells, Fluo-8 calcium fluorescence, orexin A; inhibition, % at 5 µM; hit rate 0.43% among 330,000; AID 434989;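 active = inhibition above its plate's threshold, mean inhibition of all tested compounds on the plate plus 3 SD, cut at about 37% in these data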;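 note: 0% = orexin A challenge wells and 100% = SB-334867-A antagonist wells; not every result past the cut was called active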
# Target sequence (O43613 whole entry, looked up): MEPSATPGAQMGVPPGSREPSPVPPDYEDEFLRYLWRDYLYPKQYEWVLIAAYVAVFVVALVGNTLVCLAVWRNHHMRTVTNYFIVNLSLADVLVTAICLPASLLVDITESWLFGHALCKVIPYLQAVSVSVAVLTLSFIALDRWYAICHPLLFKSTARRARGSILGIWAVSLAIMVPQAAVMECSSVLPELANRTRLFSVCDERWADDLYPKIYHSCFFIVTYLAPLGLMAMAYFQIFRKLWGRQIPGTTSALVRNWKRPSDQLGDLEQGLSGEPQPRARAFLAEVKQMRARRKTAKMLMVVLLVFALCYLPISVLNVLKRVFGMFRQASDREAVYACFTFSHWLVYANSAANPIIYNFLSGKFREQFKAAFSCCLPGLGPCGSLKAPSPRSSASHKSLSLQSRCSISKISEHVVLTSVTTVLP
# Active calls of the source: *. Some of the compounds tested; most or all hits stand in other tables.
item	SMILES	OX1R antagonist
1	c1ccc(-c2nc(N3CCN(c4ccccc4)CC3)nc(-n3ccnc3)n2)cc1	-27
2	Cn1c(=O)n(CCC(=O)O)c2ccccc21	-1
3	Cc1ccc(NC(=O)CN2C(=O)NC3(CCc4ccccc43)C2=O)cc1 (configuration not stated)	-29
4	O=C(CSc1nc(-c2ccccc2Cl)ns1)NCc1ccco1	-9
5	O=C(Nc1nccs1)OCc1ccccc1	-19
6	O=C(NCc1ccc(Cl)cc1)C1CCCO1 (configuration not stated)	-6
7	C=CCN1C(=O)C(CC(=O)NCC)SC1=Nc1ccc(S(N)(=O)=O)cc1 (configuration not stated)	3
8	CCOC(=O)c1c(NC(=O)CN2CCOCC2)sc(C(=O)NC)c1C	-3
9	Cc1ccc(N2C(=O)CCSC23C(=O)Nc2ccccc23)cc1 (configuration not stated)	-8
10	CCc1ccc(-c2nc(CS(=O)CC(=O)NCc3cccnc3)c(C)o2)cc1 (configuration not stated)	-36
11	Cc1cccc(N2CCN(C(=S)NCCc3ccccc3)CC2)c1C	-23
12	COc1ccc(-c2nc(NC(=O)C3CC(=O)N(c4ccc5c(c4)OCCO5)C3)sc2C)cc1 (configuration not stated)	-10
13	CCn1ccc(C(=O)Nc2ccc(S(=O)(=O)Nc3ccccc3OC)cc2)n1	-15
14	Cc1onc(-c2ccccc2Cl)c1C(=O)Nc1ccc(-n2nncc2-c2ccco2)cc1	0
15	O=C(c1ccc(F)cc1F)N1CCCC(c2nc(-c3ccc(F)cc3)no2)C1 (configuration not stated)	-12
16	CCOC(=O)N1CCC(N2C(=O)c3ccc(C(=O)Nc4ccc(F)cc4F)cc3C2=O)CC1	-9
17	Cc1cccc(-[n+]2c(-c3cccc(Br)c3)[nH]c3nc4ccccc4nc32)c1	-36
18	CCOC(=O)N1CCN(c2c(NCCCOC(C)C)c(=O)c2=O)CC1	-8
19	O=C1c2ccccc2C(=O)N1CNc1ccccc1	1
20	COC(=O)COc1ccc2c(c1)O/C(=C\c1ccco1)C2=O	-15
21	N#Cc1c(/N=C/c2cccs2)sc2c1CCCCC2	-8
22	CCOC(=O)Cn1nc(NC(=O)c2ccc(C(=O)OC)cc2)cc1C	-17
23	CCOC(=O)/C(N=Nc1ccc(Cl)cc1)=C(/O)c1ccc([N+](=O)[O-])cc1	-14
24	O=C(CCNC(=O)c1ccc(Br)cc1)NCC1CCCO1 (configuration not stated)	-17
25	O=C(Cn1cnc2c(cnn2-c2ccc(F)cc2)c1=O)NCCc1ccccc1	-11

# Already shown: entries from further up.
item	SMILES	OX1R antagonist
20	COC(=O)COc1ccc2c(c1)O/C(=C\c1ccco1)C2=O	-15
21	N#Cc1c(/N=C/c2cccs2)sc2c1CCCCC2	-8
22	CCOC(=O)Cn1nc(NC(=O)c2ccc(C(=O)OC)cc2)cc1C	-17
23	CCOC(=O)/C(N=Nc1ccc(Cl)cc1)=C(/O)c1ccc([N+](=O)[O-])cc1	-14
24	O=C(CCNC(=O)c1ccc(Br)cc1)NCC1CCCO1 (configuration not stated)	-17
25	O=C(Cn1cnc2c(cnn2-c2ccc(F)cc2)c1=O)NCCc1ccccc1	-11

# Returning to the listing; the 2 compounds before the break are reprinted first.
item	SMILES	OX1R antagonist
24	O=C(CCNC(=O)c1ccc(Br)cc1)NCC1CCCO1 (configuration not stated)	-17
25	O=C(Cn1cnc2c(cnn2-c2ccc(F)cc2)c1=O)NCCc1ccccc1	-11
26	Cc1ccc2oc(-c3ccc(NC(=O)c4cccnc4)cc3)nc2c1	10
27	CN1C(=O)[C@H]2[C@@H](/C=C/c3ccccc3)N3C(=O)CN(CCO)C(=O)[C@@]3(Cc3ccccc3)[C@H]2C1=O	0
28	COc1cccc(CSc2nc3ccccc3cc2C=O)c1	7
29	Cc1ccccc1N1CCN(C2CCCN(C(=O)c3cnsn3)C2)CC1 (configuration not stated)	-31
30	O=C(NNc1ccccc1[N+](=O)[O-])Nc1ccc(F)cc1F	-18
31	CCc1nnc(NC(=O)c2csc3c2CCC(C)C3)s1 (configuration not stated)	-14
32	COc1ccc2c(C=O)cn(C)c2c1	1
33	COc1ccc(N2CSC3=C(C#N)C(c4cccc(OC)c4OC)CC(=O)N3C2)cc1 (configuration not stated)	-21
34	Cc1nc2ccc(NC(=O)COc3cccc(F)c3)cc2s1	-9
35	Cc1ccc(CS(=O)(=O)Cc2ccc(C(=O)NCc3ccccn3)o2)cc1	-1
36	CN(NC(=O)Nc1ccc(Cl)cc1)c1c(Cl)c(Cl)nn1C	-12
37	CCOC(=O)CCCSc1nc2sc3c(c2c(=O)[nH]1)CCC3	-6
38	COCCN1C=C2C(=O)C(C)(OC(=O)CCc3ccccc3)C(=O)C=C2C=C1c1ccc(C#N)cc1 (configuration not stated)	-27
39	COc1cc(Nc2cccc[n+]2C)cc(OC)c1OC	-11
40	CCCOC(=O)CSC1=C(C#N)C(c2ccccc2OC)C(C#N)C(=O)N1 (configuration not stated)	-20
41	C=CCNc1nc(C(=O)OCC(=O)c2ccccc2)cs1	-12
42	Cn1nc(C(F)(F)F)c(C#N)c1N1CCN(c2ccccn2)CC1	-41
43	NC(=O)[C@H](Cc1cc2ccccc2s1)NC(=O)[C@@H]1CC2(CC(c3cccc(NC(=O)[C@@H]4CCC(=O)N4)c3)=NO2)CN1C(=O)c1ccccc1 (some centres not stated)	1
44	CS(=O)(=O)N1CCC(C(=O)Nc2cccc(Cl)c2)CC1	-15
45	COc1cc(CNCc2cc(OC)ccc2OC)cc(OC)c1	-23
46	c1ccc2c(c1)CC(N1CCCCC1)c1ccccc1S2 (configuration not stated)	-16
47	Cc1oc(-c2ccccc2F)nc1CS(=O)CC(=O)NCc1ccc(Cl)cc1 (configuration not stated)	-24
48	O=C(/C=C/c1ccccc1)OCC(=O)c1ccc[nH]1	-7
49	COCCN(C(=O)COC(=O)C12CC3CC(CC(Cl)(C3)C1)C2)c1c(N)n(Cc2ccccc2)c(=O)[nH]c1=O	-23
50	COc1cc(C(=O)CSc2nccn2C)cc(OC)c1OC	-1

# New compounds follow:
item	SMILES	OX1R antagonist
51	CCOc1ccccc1NC(=O)NC(=O)N(C)S(C)(=O)=O	-26
52	O=S(=O)(Nc1ccc(-c2nc3cccnc3s2)cc1)c1ccc(Cl)s1	-22
53	CC(C)C(c1nnnn1Cc1ccc(F)cc1)N1CCN(C2CCCCC2)CC1 (configuration not stated)	-23
54	COc1ccc(Cl)cc1NC(=O)C12CCC(C)(C(=O)O1)C2(C)C (configuration not stated)	-18
55	Cc1cc(C)cc(N2CCCn3c2nc2c3c(=O)n(CCN3CCOCC3)c(=O)n2C)c1	-34
56	CC1CC2=C(C(=O)O1)C(C)Nc1ccccc1N2 (configuration not stated)	-6
57	CC1(c2ccccc2)NC(=O)N(N)C1=O (configuration not stated)	-21
58	Cc1ccc(N)cc1-n1c(C)ccc1C	-14
59	CSc1ncccc1C(=O)Nc1cc(C)ccn1	-4
60	CCN(CC)C(=O)CSc1nc2nc(C)cc(C)c2c(=O)[nH]1	-3
61	COc1cccc(C2(O)CCN(C(=O)c3cccs3)CC2)c1	-7
62	CCOC(=O)N1CCN(C(=O)c2cc3cc(C)ccc3[nH]2)CC1	-22
63	O=C(CCCC1=NS(=O)(=O)c2ccccc2N1)Nc1ccccc1	1
64	COc1cccc(NC(=O)c2ccc(S(=O)(=O)NCc3cccnc3)cc2)c1	-12
65	COc1ccc(NC(=S)N(CCCN2CCN(C)CC2)Cc2cccs2)cc1	-10
66	C=CCn1c(SCC(=O)N2CCc3ccccc3C2)nc2sc(C)c(C)c2c1=O	-41
67	CCOc1ccccc1Nc1nnc(C)c(=O)[nH]1	-16
68	Cc1cc(C)c(NC(=O)CCCN2CCOCC2)c(C)c1	-14
69	Cc1cnc(C(=O)OCC(=O)N2c3ccccc3CC2C)cn1 (configuration not stated)	-5
70	CC(=O)Nc1nnc(SCC(=O)NC2CCCC2)s1	7
71	CCCCCC(=O)N(Cc1ccccc1)c1c(N)n(CCOC)c(=O)[nH]c1=O	4
72	NNC(=O)c1ccc(OCC2CC(c3ccc(Cl)cc3)=NO2)cc1 (configuration not stated)	-21
73	COc1ccc(/C=N/NC(=O)c2ccccc2F)cc1CN1CCN(c2ccc(F)cc2)CC1	-28
74	COc1ccc(C(=O)Nc2cccc3nc(C)ccc23)c(OC)c1	-30
75	COc1ccc2c(c1)CCc1cnc(N)nc1-2	-7

# Following part
item	SMILES	OX1R antagonist
76	O=C(Nc1ccc(C#Cc2ccccc2)cc1)C1CC1	-17
77	COc1ccc(-c2cc(C(=O)O)no2)cc1	-22
78	Cc1cnc(NC(=O)CCN2C(=O)C3CCCCC3C2=O)s1 (configuration not stated)	-10
79	CCOC(=O)/C(=N\Nc1cc(Cl)ccc1Cl)N1CCN(C)CC1	-18
80	CC(=O)CCC(=O)c1ccc2ccccc2c1	7
81	O=C(CSc1ccc(-c2ccco2)nn1)NC1CCCC1	-8
82	CCOc1cccc(N(C(=O)CNC(=O)c2ccco2)C(C(=O)NCC2CCCO2)c2ccccc2)c1 (configuration not stated)	-23
83	COc1cc(C2C3C(C)N(C)C(=O)N(C)C3N(C)C(=O)N2C)ccc1O (configuration not stated)	2
84	CCOC(=O)N1CCN(C(=O)c2ccc(CS(=O)(=O)c3c(Cl)cccc3Cl)o2)CC1	-28
85	C[C@H]1CCC[C@@]2(O[C@@H](CCO)C[C@H](O)[C@H]2O)O1	4
86	CCOC(=O)N1CCN(C(=S)NC(=O)/C=C/c2ccc(C)cc2)CC1	-30
87	COC(=O)C(C(=O)Nc1cccc(C)n1)C1CCCCCC1 (configuration not stated)	-37
88	CC1CC(C)CN(C(=O)COC(=O)c2cc(S(=O)(=O)N3CCOCC3)ccc2F)C1 (configuration not stated)	-20
89	COc1ccc(NS(=O)(=O)c2ccc(C)c(C(=O)N3CCC3)c2)cc1	-18
90	CCCC(=O)Nc1ccc(NCc2ccc(C)s2)cc1	0
91	CC1CCCCC1NC(=O)C1CCN(c2c3c(nc4ncnn24)CCC3)CC1 (configuration not stated)	-6
92	Cc1ccc(-c2ccc(/C=C/C(=O)c3ccccc3)o2)cc1	-8
93	CCNC(=S)NNC(=O)c1ccccc1Cl	3
94	COc1ccc(/C=N/NC(=O)c2cccnc2)cc1CN1CCN(c2ccc(F)cc2)CC1	-30
95	COc1ccc(NC(=O)/C=C/c2ccco2)cn1	-11
96	CCn1cc(CN2CCC(C(=O)Nc3ccc(Oc4ccccc4)nc3)CC2)cn1	-6
97	O=C(NCc1ccco1)c1ccc(N2CCOCC2)c([N+](=O)[O-])c1	-8
98	Cc1cc(C)cc(NC(=O)c2ccccc2CC[N+](=O)[O-])c1	-22
99	CCOC(=O)c1sc2nc(SCC#N)n(CC3CCCO3)c(=O)c2c1C (configuration not stated)	-12
100	CCOc1ccc(-c2nnn(CC(=O)c3cc(OC)ccc3OC)n2)cc1	-8

# An excerpt from above in order of the OX1R antagonist value, ascending.
item	SMILES	OX1R antagonist
84	CCOC(=O)N1CCN(C(=O)c2ccc(CS(=O)(=O)c3c(Cl)cccc3Cl)o2)CC1	-28
82	CCOc1cccc(N(C(=O)CNC(=O)c2ccco2)C(C(=O)NCC2CCCO2)c2ccccc2)c1 (configuration not stated)	-23
95	COc1ccc(NC(=O)/C=C/c2ccco2)cn1	-11

# Additional entries.
item	SMILES	OX1R antagonist
101	O=C(c1ccc(OC2CCN(Cc3ccccc3O)CC2)cc1)N1CCCCC1	-10
102	Cc1ccc2[nH]cc(S(=O)(=O)c3ccc(F)cc3)c(=O)c2c1	6
103	CCCc1ccc(OCc2ccccc2)c2c(=O)cc(C(=O)OCC)oc12	-19
104	C=CCN1C(=NC(=O)CC)SC2CS(=O)(=O)CC21 (configuration not stated)	-11
105	C/C(=N\Nc1cccc(C(=O)O)c1)c1ccc2c(c1)Nc1ccccc1S2	-14
106	Cc1cc(C)c(C)c(S(=O)(=O)N2CCC(C(=O)NNC(=O)c3ccccc3O)CC2)c1C	-27
107	Cc1ccccc1NC(=S)NC1CCN(Cc2ccccc2)CC1	-29
108	O=C(Nc1cc(Cl)ccc1Oc1ccccc1)c1ccc(F)cc1	-9
109	Cn1ncc(C#N)c1/N=C/N1CCCCCC1	8
110	O=C1OCC/C1=C\c1ccc(O)cc1	4
111	Cc1ccc(S(=O)(=O)N2CCN(Cc3ccccc3)CC2)cc1	-23
112	COC(=O)c1cn(NC(=O)/C=C/c2ccc(OC)c(OC)c2)c(=O)c2ccccc12	5
113	Cc1nc2c(oc3ccc(Cl)cc32)c(=O)[nH]1	-5
114	O=C(NNC(=O)c1ccc2ccccc2c1O)c1cccs1	-1
115	COC(=O)c1ccccc1NC(=O)CSc1nncn1-c1cccnc1	-9
116	CC(=O)C1=C(C)NC(SCC(=O)c2ccc(C)cc2)=C(C#N)C1c1ccco1 (configuration not stated)	6
117	Cc1cccc(NC(=O)Cn2nnc(C(=O)Nc3ccc(F)c(Cl)c3)c2N)c1	9
118	Cc1ccc(NC2=NCC(=O)N2C2CCCC2)c(C)c1	-11
119	COc1ccc(Cn2nnnc2C(CC(C)C)N2CCC(C(N)=O)CC2)cc1 (configuration not stated)	-13
120	Cc1cc2cc(CN(CC3CCCO3)C(=S)Nc3ccccc3)c(=O)[nH]c2cc1C (configuration not stated)	-29
121	CC(=O)Nc1ccc(C2NC(=O)c3ccccc3O2)cc1 (configuration not stated)	-2
122	CCOC(=O)N1CCN(Cc2nc(Cc3cccc(F)c3)no2)CC1	-23
123	CS(=O)(=O)c1ccc(-c2nnc(NC(=O)c3cccc(N4C(=O)CCC4=O)c3)o2)cc1	-16
124	COCCNC(=O)/C(C#N)=C/c1ccc(O)c([N+](=O)[O-])c1	-8
125	CCn1cc(/C=N\NC(=O)c2cc(-c3ccccc3OC)nc3ccccc23)c(C)n1	-23

# (continued)
item	SMILES	OX1R antagonist
126	C#CCn1c(=NC(=O)c2ccc(S(=O)(=O)N3CCCc4ccccc43)cc2)sc2cc(S(N)(=O)=O)ccc21	13
127	COc1cc(C(C(=O)NC2CCCC2)N(C(=O)c2ccco2)c2ccccc2C(C)=O)cc(OC)c1OC (configuration not stated)	-23
128	CCS(=O)(=O)Nc1cccc(C2=NN(S(C)(=O)=O)C(c3cccs3)C2)c1 (configuration not stated)	-4
129	COc1ccc(-c2oc3ccc(-c4ccc5c(c4)OCO5)cc3c2C#CC2(O)CCCCC2)cc1	-2
130	Cc1noc(NS(=O)(=O)c2ccc(N/C=C\C(=O)c3ccc(F)cc3)cc2)c1C	-9
131	CS(=O)(=O)N(CCc1ccccc1)CC(=O)N1CCCCC1	-5
132	Cc1cccc(NC2SC(=O)N(CC(=O)O)C2=O)c1 (configuration not stated)	0

# Screening data: PubChem, The Scripps Research Institute Molecular Screening Center
